# HNF4A DNA FP – change in binding of human HNF4A to DNA, primary screen, biochemical, fluorescence polarization, FITC-DNA | 1 h | activity change, % at 10 µM | hit rate 0.3% among 360,000; in the data active means activity change above about 30%, passing the limit was not always enough;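 further: controls were the assay level and a saturating level of protein; the project sought stronger binding though the title names inhibitors; some compounds called inactive have numbers as strong as hits; positive values seem to mean higher polarization but the record does not say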
# Target sequence (P41235 whole entry, looked up): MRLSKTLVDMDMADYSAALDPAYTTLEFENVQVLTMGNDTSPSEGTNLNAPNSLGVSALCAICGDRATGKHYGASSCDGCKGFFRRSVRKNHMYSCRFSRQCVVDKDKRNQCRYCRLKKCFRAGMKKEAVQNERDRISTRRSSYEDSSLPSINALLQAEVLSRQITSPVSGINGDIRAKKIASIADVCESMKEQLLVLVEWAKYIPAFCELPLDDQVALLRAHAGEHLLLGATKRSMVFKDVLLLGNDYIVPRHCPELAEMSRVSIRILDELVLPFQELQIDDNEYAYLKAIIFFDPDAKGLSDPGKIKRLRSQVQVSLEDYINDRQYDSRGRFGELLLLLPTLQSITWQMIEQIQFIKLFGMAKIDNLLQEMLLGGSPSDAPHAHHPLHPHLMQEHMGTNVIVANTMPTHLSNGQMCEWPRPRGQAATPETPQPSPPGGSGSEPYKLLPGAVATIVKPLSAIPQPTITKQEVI
# Vif TR-FRET – inhibitors of Vif binding to APOBEC3G peptide, primary screen, biochemical, TR-FRET, GST-Vif 1-94, biotin-A3G peptide, dose response retest (AID 1117319); Virion infectivity factor (Human immunodeficiency virus type 1 group M subtype B (isolate …; TR-FRET GST-Vif / biotin-A3G peptide binding; higher % means a stronger effect; test concentration not given here; strong numbers were not always called active; inhibition, %, or IC50 in µM where a hit was titrated; hit rate 0.57% among 260,000;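 active means above the screen mean plus three standard deviations and confirmed in dose response; inconclusive means results disagree or hit not tested in dose response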;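 further: Vif residues 1-94 fused to GST binding biotinylated APOBEC3G peptide 110-148; 0% = full assay without inhibitor and 100% = GST in place of GST-Vif; retest series ran down from 100 µM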
# ALR H2O2 inh – inhibitors of human ALR sulfhydryl oxidase, primary screen, biochemical, H2O2 detection, HRP-luminol luminescence, single point; AID 485317, 2010; purified ALR, DTT oxidation; hit rate 3.8% among 290,000; inhibition, % (no concentration beside the values);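 active means mean and each replicate at 75% or more; inconclusive means only one of the two met; inactive means neither met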;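 further: stock transfer was 7.5 nL into about 7.5 µL; 0% = neutral wells and 100% = wells with inactivated enzyme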
# Target sequence (P55789 whole entry, looked up): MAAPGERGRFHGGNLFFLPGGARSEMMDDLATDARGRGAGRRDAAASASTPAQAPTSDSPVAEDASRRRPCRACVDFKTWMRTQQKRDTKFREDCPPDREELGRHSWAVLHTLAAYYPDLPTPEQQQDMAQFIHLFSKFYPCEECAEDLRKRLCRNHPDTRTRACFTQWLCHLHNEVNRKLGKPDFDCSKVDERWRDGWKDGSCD
# E coli growth – E. coli growth inhibition, primary screen, OD600. Escherichia coli growth, 23 h; hits give low values. OD600 absorbance (no concentration beside the values). hit rate 0.21% among 330,000;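 active means OD600 absorbance below the run mean of sample wells minus 3.6 SD, in any replicate, cut at about 0.56 in these data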;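 further: stock transfer was 300 nL into about 60 µL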
# FGF22 binding – binders of human FGF22 protein, primary screen, FGF22 synaptogenesis inhibitor project, biophysical, thermal shift, single point | recombinant FGF22 thermal shift, SYPRO orange fluorescence; percent of sucrose octasulfate shift, DMSO zero | calls only at 9.99 µM | Fibroblast growth factor 22 (Homo sapiens), Q9HCT0 | hit rate 1.5% among 340,000 | AID 651658, 2012;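 active means melting point raised past a set limit in the mean and every replicate; inconclusive means no clear call; three in four hits are not shown here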
# Target sequence (Q9HCT0 whole entry, looked up): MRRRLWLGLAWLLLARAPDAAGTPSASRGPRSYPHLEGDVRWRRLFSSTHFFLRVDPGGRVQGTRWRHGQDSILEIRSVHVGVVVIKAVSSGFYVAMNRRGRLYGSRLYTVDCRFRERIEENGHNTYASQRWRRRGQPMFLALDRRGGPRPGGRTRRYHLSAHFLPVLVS
# MLL AF4-AF9 inh – inhibitors of AF4 peptide binding to AF9, primary screen, biochemical, AlphaScreen, biotin-AF4 peptide, FLAG-AF9, single point. Protein AF-9 (Homo sapiens), P42568. inhibition, % at 10 µM. hit rate 0.47% among 350,000;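 active means every replicate reaching a set inhibition limit, whatever the replicate mean, cut at about 25% in these data; inconclusive means mean inhibition reaches that limit but some replicates miss it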;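 further: 0% = plate neutral control median and 100% = total signal loss; the record names both 10 and 1 µM as test concentration; the first replicate is given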
# rRNA inh HTS – reduced GFP signal of wild-type E. coli, primary screen, bacterial rRNA inhibitor project, GFP/RFP fluorescence, OD600, single point; AID 720706, 2013; hit rate 1.6% among 350,000; E. coli WT GFP vs humanized-ribosome RFP mutants, 24 h; hits give low values; DMSO median 0, no signal -100; GFP signal change (wild-type ribosome), % (no concentration beside the values);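 active means significant combined selectivity score with lowered wild-type GFP, culture density cut under 30%, mutant RFP and density less affected; inactive means any of these conditions unmet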; further: one replicate is shown; some compounds called inactive have numbers as strong as hits
# rRNA inh HTS OD600 – also measured in rRNA inh HTS; calls as there; OD600 change, %; measured here: OD600 growth;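 optical density of the mix in the first replicate; 0 = DMSO median and -100 = no signal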
# rRNA inh HTS RFP – also measured in rRNA inh HTS; calls as there; RFP signal change, %; measured here: RFP humanized mutant strains;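 first replicate; 0 = DMSO median and -100 = no signal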
# An asterisk follows results filed as active; i = inactive; ? = inconclusive; . = no result given; & = joins results of further samples.
# Sequence of screens: HNF4A DNA FP, Vif TR-FRET, ALR H2O2 inh, E coli growth, FGF22 binding, MLL AF4-AF9 inh, rRNA inh HTS, rRNA inh HTS OD600, rRNA inh HTS RFP
> NC(=O)COC(=O)CC1CC2CCC1C2 (stereo not drawn)
 : -0.1, ., -4, 0.72, i, -14, 3, -3, 0.1
> COc1cc2[nH]c(=O)n(Cc3ccccc3Cl)c(=O)c2cc1OC
 : -0.1, -4%, 0, 0.74, ., ., ., ., .
> COc1ccc(/C=N\NC(=O)C2CCCC2)cc1Br
 : -3.0, ., -21, ., i, 1.2, 8, 14, 1.1
> O=[N+]([O-])c1cc(-c2nc(-c3ccncc3)no2)cc([N+](=O)[O-])c1
 : -0.8, ., -30, 0.64, ., ., ., ., .
> COc1ccc(C(=O)NNC(=S)NC(=O)c2ccco2)cc1
 : -3.5, 27%, 31, 0.44*, ., ., ., ., .
> Cc1cc(SCC(=O)N(C)c2c(N)n(Cc3ccccc3)c(=O)[nH]c2=O)nc2ccccc12
 : -5.8, -40%, -26, 0.66, i, -1.9, 15, 10, 2.0
> Cc1ccsc1/C=N/NC(=S)NCCc1ccccc1
 : -2.5, 3%, 4, ., i, 2.5, -8, 1, -3.0
> C[C@]12CC[C@H](O)CC1=CCC1C2CC[C@@]2(C)C1CC[C@@H]2NCc1ccccc1 (stereo partly drawn)
 : 0.8, ., ., ., i, 0.1, ., ., .
> Cc1ccc(/C=N/NC(=O)c2cc3c(s2)CCCC3)o1
 : -4.9, -8%, 4, ., i, -2.0, -5, -2, -1.3
> CN(C(=O)COc1ncnc2c1cnn2-c1ccccc1)C1CCCCC1
 : 2.5, -9%, ., 0.73, i, -7.0, 17, 9, -11
> CN(C)S(=O)(=O)c1cc(NC(=O)c2ccc(-n3ccnc3)c([N+](=O)[O-])c2)ccc1Cl
 : -1.6, 0%, -3, 0.65, i, 6.3, -7, 3, -2.9
> CC(C)CNC(=O)COc1ncnc2ccccc12
 : 1.4, 11%, 1, 0.71, ., ., ., ., .
> Cc1ccc2nc(N3CC(C)OC(C)C3)nc(-c3ccccc3)c2c1 (stereo not drawn)
 : 2.7, ., 3, 0.74, i, -7.3, -1, 12, -0.4
> CCN1CCN(CCNC(=O)c2ccc(CS(=O)(=O)c3c(Cl)cccc3Cl)o2)CC1
 : -1.1, 0%, -10, 0.76, i, -6.3, 11, 11, 5.8
> S=c1[nH]nc(-c2ccc(Br)cc2)n1Cc1ccco1
 : -1.0, ?, 88*, 0.69, ., ., ., ., .

# Brought forward from above: three entries, then new ones.
# Sequence of screens: HNF4A DNA FP, Vif TR-FRET, ALR H2O2 inh, E coli growth, FGF22 binding, MLL AF4-AF9 inh, rRNA inh HTS, rRNA inh HTS OD600, rRNA inh HTS RFP
> Cc1ccc2nc(N3CC(C)OC(C)C3)nc(-c3ccccc3)c2c1 (stereo not drawn)
 : 2.7, ., 3, 0.74, i, -7.3, -1, 12, -0.4
> CCN1CCN(CCNC(=O)c2ccc(CS(=O)(=O)c3c(Cl)cccc3Cl)o2)CC1
 : -1.1, 0%, -10, 0.76, i, -6.3, 11, 11, 5.8
> S=c1[nH]nc(-c2ccc(Br)cc2)n1Cc1ccco1
 : -1.0, ?, 88*, 0.69, ., ., ., ., .
> Cc1ccc(CS(=O)(=O)CC(C)(O)c2ccccc2)cc1 (stereo not drawn)
 : -3.9, 2%, 0, 0.7, i, 2.7, 7, -2, 2.9
> Cc1[nH]nc2c1C(c1ccc(F)cc1)C1=C(CC(C)(C)CC1=O)N2 (stereo not drawn)
 : 5.2, -5%, ., 0.67, ., ., ., ., .
> C/C(=N/NS(=O)(=O)c1ccc(C)cc1C)c1ccc2c(c1)OCO2
 : 1.0, -2%, 18, ., i, 0.3, 5, 6, -0.9
> C[C@@H]1COC(=O)[C@H](Cc2ccc(F)cc2)C/C=C\C[C@@H](CC(=O)N[C@H](CO)Cc2ccccc2)C(=O)N1
 : -2.6, ., 0, ., i, -3.8, -6, 1, -8.8
> Clc1nc(Cl)nc(-c2cn(-c3ccccc3)c3ccccc23)n1
 : ., 13%, -10, 0.6, ., ., ., ., .
> COc1ccc(CN2CCC[C@]3(N[C@H](c4ccc(C)cc4)[C@@H]4C(=O)N(C)C(=O)[C@@H]43)C2=O)cc1
 : -5.1, 2%, ., ., i, 2.1, -2, 5, -3.9
> CN(Cc1cn(C)nc1-c1ccccc1F)CC1CCCCO1 (stereo not drawn)
 : 0.9, 25%, -11, 0.67, i, 4.9, 9, -3, -9.6
> Cc1ccccc1S(=O)(=O)NCC[C@H]1CC[C@H](NC(=O)Nc2cccc(F)c2)[C@H](CO)O1
 : ., ., ., ., i, 0.5, -7, -12, -1.3
> Cc1onc(-c2c(Cl)cccc2Cl)c1NC(=O)N(C)N
 : -0.6, 4%, -6, 0.66, i, 2.9, -1, -24, 2.4
> CC1CCCCC1NC(=O)COC(=O)Cc1ccc(Br)cc1 (stereo not drawn)
 : -1.2, -1%, 0, 0.71, i, -21, -13, -8, 3.0
> Cc1noc(C)c1S(=O)(=O)Nc1ccc2c(c1)C(=O)N([C@@H](C)CO)C[C@H](C)[C@H](CN(C)C(=O)NC1CCCCC1)O2
 : ., ., ., ., i, -19, 5, 5, -0.5
> C[C@@H]1CN([C@H](C)CO)C(=O)c2cccc(NC(=O)Nc3ccc(C(F)(F)F)cc3)c2O[C@H]1CN(C)S(=O)(=O)c1cccs1
 : 1.5, ., -10, ., i, -3.2&3.7, 4, -6, -3.0
> Cn1c(SCc2cc(=O)[nH]c3ccccc23)nnc1-c1ccco1
 : 1.5, ?, -4, 0.73, ., ., ., ., .
> O=c1oc(C2(O)CCCCC2)cc2ccccc12
 : -0.5, 8%, ., 0.71, i, -3.9, 2, -6, -9.6
> CCCOP(=O)(OCCC)C(Nc1cccc(C(F)(F)F)c1)c1ccc(C)cc1 (stereo not drawn)
 : 1.0, 10%, -6, 0.73, ., ., ., ., .
> COc1ccc2c3c([nH]c2c1)[C@H](CO)N(S(C)(=O)=O)CC31CCN(CC2CCCC2)CC1
 : ., ., ., ., i, -1.3, 2, 4, -2.3
> CC(=O)c1ccc2c(c1)N(CCCN1CCC(CCO)CC1)c1ccccc1S2
 : 0.8, ., 96*, 0.69, i, 6.4, -15, -16, 8.9
> Cc1ccc(CNc2nc(NC(C)C)nc3ccsc23)c(C)c1
 : 8.2, ., ., ., i, 10, -54, -80, -20
> CCCCN(CC)C(=O)Cn1ncc2c1-c1cc(C)ccc1OC2
 : -1.1, 1%, ., 0.7, i, -7.7, -3, -6, 2.5
> COc1ccc2c3c([nH]c2c1)[C@H](CO)N(C(=O)c1ccccn1)CC31CCN(C(=O)C2CCCC2)CC1
 : ., ., ., ., i, -0.6, -3, 4, 0.0
> COCCCNC(=O)/C=C/c1cccc(Cl)c1
 : -0.4, -11%, -2, 0.68, ., ., ., ., .
> C[C@H]1CN([C@@H](C)CO)C(=O)c2cccc(NC(=O)C3CCCCC3)c2O[C@H]1CN(C)C(=O)Nc1ccccc1
 : ., ., ., ., i, 0.7, -1, 2, -3.0
> C[C@H]1CN([C@@H](C)CO)C(=O)c2cc(NC(=O)C3CC3)ccc2O[C@H]1CN(C)Cc1ccc(C(F)(F)F)cc1
 : ., ., ., ., i, -1.4, -1, -3, 0.6
> Cc1cccc(C(=O)N2CCNC(=O)C2CC(=O)Nc2cccc(Cl)c2)c1 (stereo not drawn)
 : 1.0, -3%, -5, 0.68, i, -4.2, 2, 11, -1.7
> Cc1c(N2C(=O)CSC2c2ccc([N+](=O)[O-])cc2)c(=O)n(-c2ccccc2)n1C (stereo not drawn)
 : 2.2, -6%, ., 0.68, i, -2.5, 3, 10, -2.5
> CN1CCc2c(OCC(=O)N3CCCc4ccccc43)cccc2C1=O
 : 0.4, 1%, -5, 0.74, i, -0.4, -1, -4, 0.2
> CNc1cncc(-c2ccc(F)cc2F)n1
 : -0.7, ., ., ., i, 0.0, ., ., .
> N#C[C@@H]1[C@@H](c2ccc(C#CC3CC3)cc2)[C@@H](CO)N1C(=O)Cc1ccccn1
 : ., ., ., ., i, 0.1, 0, -5, -1.0
> CCCNC(=O)C[C@@H]1C[C@@H]2c3cc(NS(=O)(=O)c4ccc(OC)cc4)ccc3O[C@@H]2[C@@H](CO)O1
 : -1.5, ., ., ., i, -4.7, 5&-5, 2&-4, -0.6&-3.8
> O=C(N[C@@H]1CC[C@H](CC(=O)N2CCN(c3ccccc3)CC2)O[C@H]1CO)c1ccncc1
 : ., ., ., ., i, -0.1, 1, -7, 2.0
> CCN1C(=NCCN2CCOCC2)N[C@@H](c2ccccc2)C(C(=O)OC)=C1C
 : -1.1, ., 1, 0.77, i, -33, 5, 9, 5.4
> CC(=O)N[C@H]1CC[C@H](CC(=O)NCc2ccc(Cl)cc2)O[C@@H]1CO
 : ., ., ., ., i, -9.9, 1, 1, 7.9
> O=C(Nc1ccc(Br)c(Cl)c1)C1CC1
 : 0.9, -3%, -5, 0.68, ., ., ., ., .
> CCOc1cc(N2CCOCC2)c(OCC)cc1NS(=O)(=O)c1cc(NC(C)=O)ccc1OC
 : 0.6, ., 12, 0.68, i, 3.6, 4, 16, 3.7
> O=C(Nc1cc(Cl)ccc1Oc1ccccc1)c1ccc(F)cc1
 : 2.0, ., -8, 0.69, ., ., ., ., .
> CCOC(=O)CSc1nc(C)c(Oc2ccc(Cl)cc2Cl)c(=O)[nH]1
 : 0.2, ., -21, 0.68, i, 9.6, -9, -7, -8.0
> CCc1c(C)sc(NC(=O)OC)c1C(=O)N1CCOCC1
 : 4.2, -5%, 4, 0.68, ., ., ., ., .
> OC[C@@H]1[C@@H](c2ccc(-c3ccc(F)cc3)cc2)[C@@H]2CN(Cc3cccnc3)CCCCN12
 : ., ., ., ., i, 1.6, 6, -20, 17
> Cc1ccccc1NC(=S)NC1CCN(Cc2ccccc2)CC1
 : -1.9, ., -1, 0.67, ., ., ., ., .
> CO[C@@H]1CN(C)C(=O)c2cc(NC(=O)c3ccccc3)ccc2OC[C@H](C)N(C(=O)C2CC2)C[C@H]1C
 : ., ., ., ., i, -1.3, -2, -8, -0.2
> CCCCc1ccc(S(=O)(=O)Nc2nnc(C)s2)cc1
 : -1.5, ., -20, 0.72, i, -2.2, -37, -59, -8.7
> C/C=C/c1cnc2c(c1)C(=O)N([C@@H](C)CO)C[C@H](C)[C@H](CN(C)C(=O)CN1CCOCC1)O2
 : ., ., ., ., i, -2.2, 1, -1, 0.2
> Cc1c(NC(=O)COC(=O)c2ccc(O)cc2)c(=O)n(-c2ccccc2)n1C
 : 0.7, ., ., 0.71, i, -0.4, 4, 14, -1.3
> Cc1cc2cccc(C)c2nc1SCC(=O)NCC1CCCO1 (stereo not drawn)
 : -2.4, ., 8, 0.67, i, -3.2, -4, -6, 0.4
> CCCc1nc(NCCCOCC)c2nnn(Cc3ccccc3)c2n1
 : -5.7, ., -9, 0.69, i, 1.5, -4, 0, 4.2
> O=[N+]([O-])c1ccc(O)c(/C=N/NC2=NS(=O)(=O)c3ccccc32)c1
 : 15, 28%, 43, ., i, 16, 13, 9, -2.6
> CCCCN1C(=O)C(CC(=O)NC2CCCCC2)CC(C(=O)N2CCOCC2)=C1C (stereo not drawn)
 : -2.4, ., ., ., i, -0.2, 12, 1, 2.5
> COc1cccc(CNC(=O)C2CCN(C(=O)N3CC(C)Oc4ccccc43)CC2)c1 (stereo not drawn)
 : 0.6, ., -14, 0.77, i, -2.3, 2, 0, 0.2

# Bioassay records deposited in PubChem BioAssay by several laboratories.

# An excerpt (hit frequency here may not be typical).
